Screening data: PubChem, National Center for Advancing Translational Sciences (NCATS)
hNpr1 antagonist – antagonists of human natriuretic peptide receptor Npr1; HEK293 hNpr1 GloSensor cGMP, ANP-stimulated luminescence; Potency, µM (titrated, usually from 46.3 µM), without a hit: top-dose activity change, negative = inhibition, hits mostly inhibitors; actives 1.6% (n = 76,000); AID 1347048; active = well fitted inhibition curve with a large enough effect; inconclusive = small, poorly fitted or top-dose-only effect; inactive = no such curve, though single readings can be large or run the other way;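 note: nearly all actives have a fitted effect of over 60% in size; nearly all hits also lower the signal before the agonist is added; a reference antagonist and vehicle were the controls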
Target sequence (P16066 whole entry, looked up): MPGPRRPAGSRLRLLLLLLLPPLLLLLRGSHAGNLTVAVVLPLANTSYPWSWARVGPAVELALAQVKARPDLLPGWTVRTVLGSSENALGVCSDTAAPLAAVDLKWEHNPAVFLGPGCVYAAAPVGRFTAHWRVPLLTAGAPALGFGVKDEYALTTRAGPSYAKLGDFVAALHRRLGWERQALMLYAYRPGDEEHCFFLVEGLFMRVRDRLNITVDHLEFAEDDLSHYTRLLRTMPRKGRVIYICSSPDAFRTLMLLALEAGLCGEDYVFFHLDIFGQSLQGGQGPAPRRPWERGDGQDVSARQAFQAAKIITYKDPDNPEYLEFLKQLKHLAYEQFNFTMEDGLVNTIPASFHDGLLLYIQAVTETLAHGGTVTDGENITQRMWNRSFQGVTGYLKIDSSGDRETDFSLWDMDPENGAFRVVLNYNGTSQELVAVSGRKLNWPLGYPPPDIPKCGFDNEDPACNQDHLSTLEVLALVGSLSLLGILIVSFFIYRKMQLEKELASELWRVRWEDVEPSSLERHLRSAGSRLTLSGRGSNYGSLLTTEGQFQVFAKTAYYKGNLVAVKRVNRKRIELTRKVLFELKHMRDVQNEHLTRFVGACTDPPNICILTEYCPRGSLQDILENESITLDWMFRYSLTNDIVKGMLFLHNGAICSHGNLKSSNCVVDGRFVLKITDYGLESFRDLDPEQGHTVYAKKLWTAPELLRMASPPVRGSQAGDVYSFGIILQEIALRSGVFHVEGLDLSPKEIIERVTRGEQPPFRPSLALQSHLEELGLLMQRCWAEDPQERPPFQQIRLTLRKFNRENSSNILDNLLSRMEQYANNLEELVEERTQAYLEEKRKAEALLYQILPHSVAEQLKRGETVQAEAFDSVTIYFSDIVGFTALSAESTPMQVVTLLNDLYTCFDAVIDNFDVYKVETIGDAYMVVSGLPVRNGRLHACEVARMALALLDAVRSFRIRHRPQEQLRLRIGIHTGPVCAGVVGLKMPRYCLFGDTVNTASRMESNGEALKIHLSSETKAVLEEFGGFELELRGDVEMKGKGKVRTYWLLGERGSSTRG
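HEK293 cells stably expressing human Npr1 and cGMP GloSensor pGS-40F, loaded 2 h with 2% GloSensor reagent, given compound 30 min at room temperature. Luminescence read before and 20 min after 0.1 nM hNppA.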
* marks the source's active call; other numbers are inactive results; ? = inconclusive; [ ] = another dose, or the depositor's remark. % is set by controls: 0 for no effect and ±100 for the full control effect; potency is the fitted concentration of half-maximal effect. Some of the compounds tested; the hit share may differ from the screen's.

SMILES | hNpr1 antagonist
CCNC(=O)N1CC(c2nnc(-c3ccncc3)o2)C2(CCOCC2)C1 (centres undefined) | 0%
CC(=O)N1CCOC[C@H](Oc2ccc(C(F)(F)F)cn2)C1 | 1%[70.6 µM]
O=[S+]([O-])(c1cccs1)N1CCn2c(nnc2-c2ccncc2)C1 | -17%
CCC(=O)N1CCc2c(C(=O)N3CCCCC3)cccc21 | 0%
COc1ccc(N=C2S[C@H]3[C@H]([C@@H](O)[C@H](O)C[C@@H]3C(N)=O)N2CC2CCCCC2)cc1 | 8%[70.6 µM]
Cc1nn2c(c1-c1ccccc1[S+](C)(=O)[O-])N(C(=O)c1cccc(O)c1)CCC2 | 2%[70.6 µM]
COCCc1noc(-c2ccc(N(C)Cc3ncc(C)[nH]3)nc2)n1 | 18%
COc1ccc(NC(=O)N2CCCC(Cn3cnc4cccnc43)C2)c(C)c1 (centres undefined) | -2%
Cc1nnc2n1CCC(N(C)S(=O)(=O)c1cccnc1)CC2 (centres undefined) | 7%
Cc1cccc2c1nc1n2[C@@H](CNC(=O)c2ccc(C#N)cc2)COC1 | -2%[70.6 µM]
COc1ccc(OC)c(NC(=O)c2ccc3c(c2)N(S(=O)(=O)c2ccccc2)CC3)c1 | -7%
COc1ccc(N2CC(c3noc(-c4cc(OC)cc(OC)c4)n3)CC2=O)cc1 (centres undefined) | 8%
COc1cccc(Nc2ccc3c(n2)C(C)(C(=O)NCc2cccs2)CN(C)C3)c1 (centres undefined) | -5%[70.6 µM]
CCN1C(=O)CCN(C(=O)c2cccnc2C)CC12CCOCC2 | 0%
Cc1ccccc1-c1cnc2[nH]cc(CC(=O)Nc3ccn(C)n3)c2c1 | ?
CCN(CCO)C(=O)CC1C(=O)NCCN1Cc1cccnc1 (centres undefined) | 0%
c1ccc(-c2noc(-c3cncnc3N3CCCCCC3)n2)cc1 | -7%
COCC(=O)NC1CCC12CCN(C(=O)Cc1c[nH]c3ccccc13)CC2 (centres undefined) | -3%
COCCOC1CCOC2(CCN(C(=O)c3cccc(C)c3)CC2)C1 (centres undefined) | 10%
O=C(Cc1ccc(Br)cc1)N1CCCN(C(=O)C2CC2)c2ccccc21 | -2%
O=C(NCCC1=CCCCC1)C1CC(=O)N(c2n[nH]c3ccccc23)C1 (centres undefined) | -2%
CCCNC(=O)NCC1c2cc(OC)c(OC)cc2CCN1C(=O)NC(C)C (centres undefined) | 2%
COCCN1Cc2[nH]nc(-c3cccc(C(F)(F)F)c3)c2CC1=O | 7%[70.6 µM]
COCc1cc(CC2(NCCC(C)C)COC2)no1 | 1%[70.6 µM]

Rewritten as tab-separated lines: 18 of the compounds above
SMILES	hNpr1 antagonist
COc1ccc(N=C2S[C@H]3[C@H]([C@@H](O)[C@H](O)C[C@@H]3C(N)=O)N2CC2CCCCC2)cc1	8%[70.6 µM]
Cc1nn2c(c1-c1ccccc1[S+](C)(=O)[O-])N(C(=O)c1cccc(O)c1)CCC2	2%[70.6 µM]
COCCc1noc(-c2ccc(N(C)Cc3ncc(C)[nH]3)nc2)n1	18%
COc1ccc(NC(=O)N2CCCC(Cn3cnc4cccnc43)C2)c(C)c1 (centres undefined)	-2%
Cc1nnc2n1CCC(N(C)S(=O)(=O)c1cccnc1)CC2 (centres undefined)	7%
Cc1cccc2c1nc1n2[C@@H](CNC(=O)c2ccc(C#N)cc2)COC1	-2%[70.6 µM]
COc1ccc(OC)c(NC(=O)c2ccc3c(c2)N(S(=O)(=O)c2ccccc2)CC3)c1	-7%
COc1ccc(N2CC(c3noc(-c4cc(OC)cc(OC)c4)n3)CC2=O)cc1 (centres undefined)	8%
COc1cccc(Nc2ccc3c(n2)C(C)(C(=O)NCc2cccs2)CN(C)C3)c1 (centres undefined)	-5%[70.6 µM]
CCN1C(=O)CCN(C(=O)c2cccnc2C)CC12CCOCC2	0%
Cc1ccccc1-c1cnc2[nH]cc(CC(=O)Nc3ccn(C)n3)c2c1	?
CCN(CCO)C(=O)CC1C(=O)NCCN1Cc1cccnc1 (centres undefined)	0%
c1ccc(-c2noc(-c3cncnc3N3CCCCCC3)n2)cc1	-7%
COCC(=O)NC1CCC12CCN(C(=O)Cc1c[nH]c3ccccc13)CC2 (centres undefined)	-3%
COCCOC1CCOC2(CCN(C(=O)c3cccc(C)c3)CC2)C1 (centres undefined)	10%
O=C(Cc1ccc(Br)cc1)N1CCCN(C(=O)C2CC2)c2ccccc21	-2%
O=C(NCCC1=CCCCC1)C1CC(=O)N(c2n[nH]c3ccccc23)C1 (centres undefined)	-2%
CCCNC(=O)NCC1c2cc(OC)c(OC)cc2CCN1C(=O)NC(C)C (centres undefined)	2%

Following part
SMILES | hNpr1 antagonist
CNC(=O)c1noc([C@@H]2CC(F)(F)CN2C(=O)C(C)C)n1 | 1%
CN(CC1CCOCC1)S(=O)(=O)c1ccc(Cl)s1 | -2%
Cc1noc(C)c1C(=O)N1CCCn2ccnc2C1C(C)C (centres undefined) | -10%
CCN(C1CCOCC1)C1CN(C(C)=O)C1 | -12%
CCn1cc(CN2CCC3(CC2)CC(O)CCO3)c2cc(OC)ccc21 (centres undefined) | 6%
FC1(F)C[C@@H](c2nc(C3CC3)no2)N(Cc2ccco2)C1 | 5%
O=C(c1ccc(F)cc1)N1CCCN(c2cc(-c3ccc(F)cc3)[nH]n2)CC1 | -1%
CC(C)CN1C(=O)c2cccn2CC1C(=O)NCCCN1CCOCC1 (centres undefined) | -5%
COc1cccc(CC(=O)NCC2Cn3cccc3C(=O)N2CC(C)C)c1 (centres undefined) | 2%
COc1ccc2nc(C[C@@H]3C[C@@H](C(C)C)[C@H](CNCc4ccccc4OC)C=C3C)[nH]c2c1 | -26%
CCc1[nH]nc(C(=O)N2C[C@@H](CN3CCCCCC3)[C@@H](CO)C2)c1C | 13%
CCOc1ccccc1NC(=O)NC1CCN(C(=O)N2CC3CC(C2)[C@H]2CCCC(=O)N2C3)CC1 (some centres undefined) | 1%
CC1(c2ccccc2)N(Cc2ccccc2C#N)C(=O)OC12CCN(C(=O)CCc1cccnc1)CC2 (centres undefined) | 0%
N#Cc1ccc(C(=O)Nc2ccc([C@@H](O)[C@H]3COCC(=O)N3Cc3ccccc3F)cc2)cc1 | -3%
CC(C)CCN1CCOc2cc(C(=O)Nc3ccc4cn[nH]c4c3)ccc2C1 | -24%[70.6 µM]
Cc1ccc(C(=O)N2CCc3nc(C(C)C)nc(-c4ccc(O)cc4)c3CC2)cc1 | -17%
Cc1cc(C(=O)N2C[C@@H](CO)[C@H](c3ccccn3)C2)on1 | 2%
NC(=O)CC1=C2CCCCC2N(Cc2ccccc2)C1=O (centres undefined) | 4%
CC(C)CCCC1CN(C(=O)CCN2CCCO2)CCO1 (centres undefined) | -3%
CN1C(=O)C(CC(=O)NC2CCCCC2)Sc2ncccc21 (centres undefined) | -10%
Cc1ccc(-c2nc(CNC(=O)C(C)CN)[nH]c2-c2ccccn2)cc1 (centres undefined) | 4%
CCCNC(=O)N1Cc2ccccc2OC2(CCN(C)CC2)C1 | -5%
C[C@@H]1CN(C(=O)c2ccc(Cn3cnnn3)cc2)C[C@@]1(O)C1CCC1 | -4%
Cc1ccc(OCC(=O)N2CC(C(=O)NCCc3ccncc3)C3(CCOCC3)C2)cc1 (centres undefined) | -4%
O=C(c1ccccn1)N1CCC2(CC1)CN[S+](=O)([O-])c1ccccc1N2 | 3%
CCN(C1CCOCC1)C1CN(C(=O)c2cnccn2)C1 | -10%
CN1CCNc2nc(CNc3cccc(F)c3)n(Cc3ccccc3)c2C1=O | -14%[70.6 µM]
O=C(Cc1ccc(Cl)cc1)NC1CCN(c2cc(-c3ccc(F)cc3)[nH]n2)CC1 | -2%
O=C(c1ccc(CN2C(=O)NC3(CCS(=O)(=O)CC3)C2=O)cc1)N1CCOCC1 | 13%
Cc1ccc(C(=O)N2CCC(n3cc(-c4nc(C)no4)nn3)C2)cc1 (centres undefined) | -9%
Cc1cc(N2CCN(Cc3ccc(F)c(F)c3)C(CCO)C2)nc(N)n1 (centres undefined) | 0%
O=C(N[C@@H]1CN(c2ccncn2)C[C@H]1CO)c1ccco1 | -3%
COc1ccc(C)cc1NC(=O)Cn1ccn2nc(-c3ccc(F)cc3)c(CO)c2c1=O | 0%
CN(C)C[C@@H]1CN(C(=O)c2ccc3c(c2)OCC(=O)N3)C[C@@H]1CO | 1%
COc1ccc(-c2noc([C@@H]3Cc4nc[nH]c4CN3C(=O)CC(C)(C)CC(=O)O)n2)cc1 | 8%
O=C(NCCCc1ncc[nH]1)c1ccc(OC2CCN(C(=O)C3CC3)CC2)cc1 | 2%
COc1ccc(-c2cc(-c3c(C)noc3C)c3cncn3c2)cc1OC | -6%[70.6 µM]
CCCCCCNC(=O)Cc1csc2nc(C)c(-c3cc(C)n(-c4cccc(C)c4)n3)c(=O)n12 | -17%
O=C(Cc1cccc(F)c1)N1CCC2(CC1)NC(=O)N(Cc1ccccc1)C2=O | 2%
COc1cc(NC(=O)CCN2CCCCCC2=O)ccc1NC(=O)C(C)(C)C | 10%
O=C(c1cccc(F)c1)N1CCN(C(=O)c2nnn3c2COC(c2ccc(Cl)cc2)C3)CC1 (centres undefined) | -12%
Cc1ccc(NC(=O)N2CCCC(Cn3cnc4cccnc43)C2)cc1C (centres undefined) | -4%
CN1CC(=O)N(c2ccccc2F)Cc2c(NCC(C)(C)C)ncnc21 | -1%
CN(Cc1nc2ccc(F)cc2[nH]1)C(=O)CCc1cc2n(n1)CCCNC2 | -2%
O=C1CCN(S(=O)(=O)c2ccccc2)CCCN(S(=O)(=O)c2ccccc2)CCN1 | 3%
Cc1ccc(NC(=O)NCCc2ncc(C)n2CC2CC2)cc1C | -23%
Cc1ccccc1Cn1cc(-c2ccncc2)cc1C(=O)N1CCN(C2CCCCC2)CC1 | -3%
CNC(=O)CCn1ncc2cc(OC3CCc4cccc(-c5ccnc(C)c5)c43)ccc21 (centres undefined) | 5%[70.6 µM]
O=C(Cc1ccc(C(F)(F)F)cc1)N1CC(COc2ccccc2)C2(C1)CN(C(=O)c1cn[nH]c1)C2 (centres undefined) | 0%
Cc1nc2ccccc2n1Cc1cc(C(=O)N(C)CCOc2ccccc2)n[nH]1 | ?
Cc1nc([C@@H]2CN(C(=O)CCc3nc4ccccc4s3)C[C@H]2C(N)=O)n[nH]1 | 1%
COCCN1C(=O)c2ccccc2C(C(=O)Nc2cc(OC)ccc2OC)C12CCCC2 (centres undefined) | ?
Fc1ccccc1CCNc1cc(Cl)nc2ccnn12 | -7%[70.6 µM]
COCCN1Cc2ccc(NCC(C)C)nc2C(C)(C(=O)Nc2ccccc2)C1 (centres undefined) | -12%[70.6 µM]
COc1cccc(-c2cc(C3CCN(C(=O)c4ccc(Cl)cc4)CC3)[nH]n2)c1 | ?
Cc1sc2cc(C(=O)NCc3ccncc3)[nH]c2c1CN1CCCCC1 | 0%
Cc1cc(CNC(=O)Cc2nonc2C)c2[nH]c(-c3ccccc3)c(C)c2c1 | -15%
CCC(c1cn2cccnc2n1)n1ccnc1-c1cc2n(n1)CCCNC2 (centres undefined) | -3%
COc1cccc(C(=O)N2C(C(=O)NC3CC3)COC23CCN(C(=O)c2ccc(Cl)cc2)CC3)c1 (centres undefined) | -4%
Cc1cc(CC(=O)N2C[C@@H](COCC3CC3)[C@H](c3ccncc3)C2)on1 | 4%

The results go on.
SMILES | hNpr1 antagonist
CCc1c(C)cc(C(=O)N[C@@H]2[C@@H](Cc3ccccc3)[C@H]3OCC[C@@H]23)c(=O)n1C | -1%
Cc1nn(C)c(C)c1CCC(=O)NCCc1ncc(C)n1C1CC1 | -18%
CCc1noc(-c2cccn3c(CNC(=O)CCc4ccc(OC)cc4)nnc23)n1 | 3%
CN1CC[C@H]2COC(=O)N2c2cc(F)ccc2C1 | 3%[70.6 µM]
COc1ccc(-c2noc([C@@H]3C[C@H](NS(=O)(=O)c4cccs4)CN3C)n2)cc1 | ?
CN(C)C[C@@H]1CN(S(C)(=O)=O)C[C@H]1NC(=O)c1cnn(C)c1 | 2%
Cc1ccccc1C(=O)N1C[C@@H](CO)[C@H](c2ccncc2)C1 | 6%
O=C(NC[C@H]1O[C@H](Cc2cc(-c3ccccc3)on2)CC[C@@H]1O)c1ccncc1 | -2%[70.6 µM]
Cn1ccc(NC(=O)c2ccc3c(c2)NC(C)(CNCc2ccccc2)CO3)n1 (centres undefined) | -7%[70.6 µM]
COc1ccc(-c2cc(N3CCC(NC(=O)c4ccccc4)CC3)n[nH]2)cc1 | -17%
COc1ccc(CCC(=O)NC(C)C(=O)N2CCN(c3ccccn3)CC2)cc1 (centres undefined) | -13%
COc1ccc(OC)c(CNC(=O)C2CCc3sc(C(=O)N4CCCC4)cc3C2)c1 (centres undefined) | 3%
Cc1ccccc1OCc1nc(C2CN(C(=O)c3cc4ccccc4[nH]3)C2)no1 | -17%
CC(C)C[C@H](CO)NC(=O)C[C@@H]1c2nc(NC(=O)c3c(F)cccc3F)sc2C[C@@H]2[C@](C)(CO)[C@H](O)CC[C@]21C | 0%
CCn1cc(S(=O)(=O)N2CC[C@H](CNC(C)=O)[C@H](N(C)C)C2)cn1 | 1%
CCc1ccc(N2CC(c3noc(-c4ccc5c(c4)OCO5)n3)CC2=O)cc1 (centres undefined) | 6%
Cc1ccc(C2Cn3nnc(C(=O)N4CCC(C(=O)Nc5ccc(Cl)c(C)c5)CC4)c3CO2)cc1 (centres undefined) | -12%
COc1ccccc1N1CCN(CC[C@H]2CN(C(=O)Nc3ccc(C(F)(F)F)cc3)CC[C@H]2CC(=O)O)CC1 | 3%
Cc1cc(C)n(Cc2c(C(=O)NCC34CCC=C3N(C)C(=O)CC4)noc2C)n1 (centres undefined) | 1%
Cc1ccc(NC(=O)c2ccc3c(c2)N(C)C2CCCCCN2C3=O)cc1F (centres undefined) | 0%
O=C(c1cccc(C(F)(F)F)c1)N1CC(CO)C2(CCNCC2)C1 (centres undefined) | 11%
